Screening data deposited in PubChem by Fisher Drug Discovery Resource Center.
NPYLR7 agonist = activates Aedes aegypti NPYLR7 receptor. 270,000 tested, 0.15% active. AID 1259423. HEK293T NPYLR7/Galpha15, GCaMP6s calcium fluorescence. activation, % at 10 µM; in the data active = activation above about 40%;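 also: 0% = vehicle and 100% = reference agonist at the receptor; some compounds past the cut are filed as inactive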
NPYLR7 agonist max-min = second read-out of NPYLR7 agonist, no call of its own (marks repeat the call); activation, %; measured here: Max-Min RFU normalised activation; some inactives read as strong as hits;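 span of the calcium signal over five minutes; 0% = vehicle and 100% = native peptide agonist; compound fluorescence can raise it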
* = called active by the depositor; & = joins results of further samples. Not all compounds are listed (hit frequency here may not be typical).

SMILES | NPYLR7 agonist | NPYLR7 agonist max-min
CCCCS(=O)(=O)N1CCN(c2cc(S(=O)(=O)N3CCOCC3)ccc2OC)CC1 | 21.6 | 18.4
O=C(NC1CCCN(c2ncccn2)C1)c1cccc2ccnn12 (stereo not given) | -2.1 | -4.0
O=C1NCCCCC1Sc1nnnn1C1CCCCC1 (stereo not given) | 8.8&-3.3 | 2.6&-3.6
CN(C)CCN1CCN(c2cc(-c3ccc(F)c(F)c3)nc3ccnn23)CC1 | -0.2 | -0.4
Cc1cc(C)nc(NS(=O)(=O)c2ccc(NC(=O)c3ccc(Cl)cc3Cl)cc2)n1 | -31.6 | -36.2
CCOc1ccc(NC(=O)N2CCN(c3nc(COC)nc4sc5c(c34)CCCC5)CC2)cc1 | -15.5 | -15.0
CCOc1ccc2nc(N(CCN3CCOCC3)C(=O)/C=C/c3cccs3)sc2c1 | 22.0 | 17.7
COc1ccc(-c2cc(C(=O)Nc3ccc(C)cc3)c(C)n2-c2cccc(OC)c2)cc1 | -5.8 | 1.5
CCOc1ccc(N2C(=O)CSC2c2cccc(NC(=O)c3cccc(Cl)c3)c2)cc1 (stereo not given) | -2.2 | 5.4
O=c1c2c(C(F)(F)F)cccc2ncn1CCN1CCNCC1 | 18.7 | 8.0
CCCc1nn(Cc2ccccc2)c(C)c1C(=O)N1CCCC(C(=O)OCC)C1 (stereo not given) | -13.8 | -8.4
O=C(CCCSc1ccc(NC(=O)C2CC2)nn1)NCc1cccs1 | -0.8 | -1.2
COCCNC(=O)c1coc(CN(Cc2ccc(F)cc2)Cc2cccc(OC)c2)n1 | 15.0 | 23.7
COC(=O)c1oc(CN2CCN(C(C)C(=O)NC3CC3)CC2)cc1C (stereo not given) | -3.0 | -2.7
On1c(-c2ccccc2)nc2c1CCc1nonc1-2 | 16.1 | 7.7
CCC(C)N(Cc1csc(COc2ccccc2C(C)C)n1)C(=O)c1ccc(F)cc1 (stereo not given) | 14.1 | 17.0
CC1CCCC(C)N1C(=O)COc1ccc(C(=O)O)cc1 (stereo not given) | 9.4 | 5.9
COc1ccc(C2C(C(=O)C3CC3)N3C=C(C#N)C=CC3C2(C#N)C#N)cc1 (stereo not given) | 0.6 | 24.5
O=C(NC(c1ccccc1)c1ccccc1)C1=COCCO1 | -2.7 | -5.5
Cn1c(C2CC(=O)N(c3cccc4ccccc34)C2)nc2ccccc21 (stereo not given) | -2.9 | -1.1
CCC(C(=O)N(C)Cc1cn[nH]c1-c1ccc(F)cc1)n1cccn1 (stereo not given) | -1.5 | -9.4
COCCN(CC1CN(CC(O)COCC(C)C)CCO1)C(=O)c1ccc(C)cc1 (stereo not given) | 5.0 | 5.8
CN(CCCNS(=O)(=O)NCc1ccccc1)c1ccccc1 | 3.5 | 0.0
COc1ccccc1C(C)N(C)c1nncc(-c2ccccc2F)n1 (stereo not given) | 2.4 | 1.1
Cc1nc(CNC(C)c2ccc(NC(=O)c3ccc(F)cc3)cc2)cs1 (stereo not given) | -1.5 | -2.2
CCN(C)c1cc(Oc2ccccc2OC)ncn1 | 22.1 | 34.9
Cn1c(=O)n(Cc2ccccc2F)c(=O)c2c1nc1n2CCCN1Cc1ccco1 | 19.1 | 9.8
O=C(Cc1ccccc1Cl)N1CCN(C(=O)c2ccc(=O)[nH]c2)CC1 | -0.5 | -0.1
OC[C@@H](O)CN(CCC(F)(F)F)c1nc(-c2ccccn2)nc2c1CCC2 | 2.5 | -0.6
CCN1CCCC1Cn1c(=O)n(C2C=CCCC2)c2cc(C(=O)O)ccc21 (stereo not given) | 1.9 | -5.3

Among those listed so far, these have an aryl methoxy group:
SMILES | NPYLR7 agonist | NPYLR7 agonist max-min
CCCCS(=O)(=O)N1CCN(c2cc(S(=O)(=O)N3CCOCC3)ccc2OC)CC1 | 21.6 | 18.4
COc1ccc(-c2cc(C(=O)Nc3ccc(C)cc3)c(C)n2-c2cccc(OC)c2)cc1 | -5.8 | 1.5
COCCNC(=O)c1coc(CN(Cc2ccc(F)cc2)Cc2cccc(OC)c2)n1 | 15.0 | 23.7
COc1ccc(C2C(C(=O)C3CC3)N3C=C(C#N)C=CC3C2(C#N)C#N)cc1 (stereo not given) | 0.6 | 24.5
COc1ccccc1C(C)N(C)c1nncc(-c2ccccc2F)n1 (stereo not given) | 2.4 | 1.1
CCN(C)c1cc(Oc2ccccc2OC)ncn1 | 22.1 | 34.9

The results go on:
SMILES | NPYLR7 agonist | NPYLR7 agonist max-min
Cc1ccc(-c2cc(O)c3c(c2)CN(C(=O)CCN2CCCO2)CCO3)s1 | 21.4 | 10.8
CN1CCN(C(=O)C2CC=CC2)c2ccccc21 | -0.9 | -7.4
CCCN(CCC)C(=O)c1cc(-c2ccccc2F)n2nc(C(C)(C)C)cc2n1 | 9.4 | 14.3
CC(SCc1ccccc1)C(=O)N1CCN(Cc2nnc3n2CCCCC3)CC1 (stereo not given) | 4.3 | 1.4
Cc1ccc(NS(=O)(=O)c2ccc3c(c2)NC(=O)CO3)cc1C(F)(F)F | -6.7 | -7.8
O=C(CCc1nc(-c2ccsc2)no1)NC1CCCCCC1 | -0.6 | 4.1
CC1(C)OCC(C2OC(Nc3cccc(CC(=O)NCCCn4ccnc4)c3)[C@H]3OC(C)(C)O[C@@H]23)O1 (stereo not given in full) | -7.8 | -11.2
Cc1nc(S(=O)(=O)N2CCCCC2)c(C#N)c(C)c1Cl | -1.1 | -1.7
O=C(CSc1nc2sc3c(c2c(=O)[nH]1)CCC3)N(CCO)CCO | 1.4 | -0.9
CCNC(=O)C1(C)CCN1C(=O)c1sccc1C (stereo not given) | 6.8 | 4.5
NC[C@@H]1O[C@H](O[C@H]2[C@@H](O)[C@H](O[C@@H]3[C@@H](O)[C@H](N)C[C@H](N)[C@H]3O[C@H]3O[C@H](CN)[C@@H](O)[C@H](O)[C@H]3N)O[C@@H]2CO)[C@H](N)[C@@H](O)[C@@H]1O | -0.7 | -3.1
CCC1CN(S(=O)(=O)N2CCOCC2)CCC(=O)N1Cc1ccccc1 (stereo not given) | 3.7 | 3.5
COc1ccc(Cl)cc1CC1(C)C(=O)Nc2cccc(Cl)c21 (stereo not given) | 2.0 | 0.4
Cc1ncc(CN(C)C(=O)NC2CC3CCC2(C)C3(C)C)s1 (stereo not given) | -0.1 | -0.6
O=C(c1coc(CN2CCN(c3ccccc3F)CC2)n1)N1CCCC1c1nccs1 (stereo not given) | 1.9 | -1.0
C#C[C@]1(O)CC[C@H]2[C@@H]3CCC4=Cc5oncc5CC4(C)[C@H]3CCC21C (stereo not given in full) | 0.1 | -23.5
Nc1nccnc1C(=O)N(CC1CC1)c1ccccc1 | 7.4 | 4.5
Cn1nccc1C(=O)N1CCCC(N2CCN(Cc3ccc4c(c3)OCO4)CC2)C1 (stereo not given) | 3.3 | 0.7
CC(C)[C@H]1CC[C@H](C)C[C@@H]1OCC(=O)N1CCCN(C)CC1 | -14.0 | -19.9
O=c1[nH]nc(CCc2ccccc2O)n1Cc1cccs1 | 2.9 | -0.4
COC(=O)c1sc(S(=O)(=O)Nc2ccccc2SC)c(C(=O)OC)c1C | 1.7 | 22.8
CN(C)S(=O)(=O)c1ccc2c(c1)c(=O)nc1ccccn12 | -2.6 | 0.5
CCCn1c(-c2ccc(OC)cc2)nc2c(c(=O)c3ccccc3n2C)c1=O | 1.4 | -2.7
NC(=O)NC(=O)CNc1cccc(C(=O)c2ccccc2)c1 | -0.4 | -1.1
Cc1ccc(OCCn2c(SCCOc3ccc(Cl)cc3)nc3ccccc32)cc1 | -6.8 | -7.2
CCOC(=O)C1C(=O)CC(=O)C(C(=O)OCC)C1c1ccco1 (stereo not given) | 3.2 | 5.6
CCC1CN(C(=O)c2ccc(N)nc2)CCC(=O)N1Cc1ccccc1 (stereo not given) | 7.9 | 7.0
COc1ccc(C2=NN(C(=O)CCl)C(c3cccc(OC)c3OC)C2)cc1 (stereo not given) | -2.6 | -4.9
CC(C)Oc1nc(-c2cccc(F)c2)n(-c2ccc(NS(=O)(=O)c3ccc(Cl)cc3)cc2)n1 | 7.3 | 9.7
CC(C)CCN1CCN(Cc2cc(=O)c3ccccc3[nH]2)CC1CCO (stereo not given) | -1.4 | -2.2
O=C(CN1CCOc2ccccc2C1)NC1CCC(n2cnnc2)CC1 (stereo not given) | 0.0 | 0.3
CCc1nnc(CN(Cc2nc(-c3ccco3)no2)C(C)C)o1 | -1.8 | -8.5
O=C(NCCOCC1CCCO1)c1cn[nH]c1-c1ccccc1F (stereo not given) | -1.1 | -2.2
C/C=C(\C)c1c(-c2ccccc2)ncn1CCN1CCCC(CO)C1 (stereo not given) | 2.5 | -3.0
COc1cccc(NC(=O)NC(C)c2nnc(SCc3cccc(C)c3)n2-c2cc(Cl)ccc2C)c1 (stereo not given) | 11.0 | 6.2
COc1cccc(COc2coc(CN3CCCN(C(=O)Cc4nc(-c5ccc(C(F)(F)F)cc5)oc4C)CC3)cc2=O)c1 | -0.9 | -3.0
CN(C)CC1(O)CCN(C(=O)CCOc2ccccc2)C1 (stereo not given) | 16.4 | 13.1
O=C(NCCCN1CCOCC1)c1nnc2n(c1=O)CCN2c1ccccc1 | 2.5 | 2.1
Cc1cc(C)c2c(c1)CCCN2CC(=O)Nc1ccc(C(=O)N(C)C)cc1 | 9.8 | 6.2
CC(C)CN(Cc1cccn1Cc1ccccc1Cl)C(=O)CN(C(=O)c1cccs1)C(C)C | -4.5 | 6.6
COc1ccc(N2C(=O)/C(=C\c3cccc(O)c3O)N(C)C2=S)c([N+](=O)[O-])c1 | 28.9 | 22.0
COc1ccccc1N1CCN(C(=O)c2cc(-c3cccn3C)nn2-c2cccc(C)c2)CC1 | -2.6 | 1.2
O=C(NC1=NCCS1)c1ccc(OCC(F)(F)F)nc1 | -2.9 | -3.9
FC(F)(F)c1ccc(Oc2cccc(CN3CCCC3)c2Cl)nc1 | 4.2 | -3.7
CN(C(=O)c1ccc(OC2CCN(C(=O)C3CC3)CC2)cc1)C1CCOC1 (stereo not given) | 6.2 | 2.6
CCCC(CNC(=O)Cn1cnc(C#N)n1)c1ccc(Cl)cc1Cl (stereo not given) | 8.2 | 2.6
Cc1cc(=O)[nH]c(-n2nc(-c3cccs3)cc2NC(=O)COc2ccc(Cl)cc2)n1 | 1.7 | -1.1
O=C(NC1CCCN(C2CCCCCC2)C1)c1ccc2c(c1)OCCO2 (stereo not given) | 13.9 | 1.2
O=C(CNC(=O)c1ccccc1O)N=Nc1c(O)[nH]c2ccc([N+](=O)[O-])cc12 | -1.6 | -8.4
Cc1ccc(NC(=O)C2(C)CCN2Cc2ccc(C(C)C)cc2)cc1O (stereo not given) | 2.8 | -1.4
COCc1c(-c2n[nH]c(CCc3ccccc3)n2)noc1C | 31.0 | 25.0
CCN1CCCC1CN(CC(=O)Nc1ccc(C)c(Cl)c1)CC(=O)N(C)C (stereo not given) | 6.1 | 2.3
Cc1cccc2[nH]c(CCn3ccnc3-c3ccc4nonc4c3)nc12 | -2.1 | -2.8
CCOC(=O)C1(NC(=O)c2cnc(CC)nc2)CCC1 | 27.5 | 17.5
COc1cc(C=Nn2cnc3sc(-c4ccccc4)cc3c2=O)cc(OC)c1OC | -4.9 | -8.6
O=C(Nc1cn[nH]c1)N1CCSCC1c1ccc(Cl)cc1 (stereo not given) | -0.8 | 31.0
OCC(O)CSCc1ccc(F)cc1 (stereo not given) | 16.1 | 4.6
COc1cc(C)c(/C=C/C(C)=C/C=C/C(C)=C/C(=O)O)c(C)c1C | -2.4 | -7.0
CCOc1cc(C(=O)NCc2nnc(SCC(=O)Nc3ccccc3F)n2-c2ccccc2)cc(OCC)c1OCC | -7.0 | 0.6
O=C(NCCc1cccc(F)c1)C1CC=CCC1C(=O)N1CCN(c2ccccn2)CC1 (stereo not given) | -15.3 | -18.4

Retrieved one by one from the list above:
SMILES | NPYLR7 agonist | NPYLR7 agonist max-min
OCC(O)CSCc1ccc(F)cc1 (stereo not given) | 16.1 | 4.6
O=C(NCCc1cccc(F)c1)C1CC=CCC1C(=O)N1CCN(c2ccccn2)CC1 (stereo not given) | -15.3 | -18.4
CCOc1cc(C(=O)NCc2nnc(SCC(=O)Nc3ccccc3F)n2-c2ccccc2)cc(OCC)c1OCC | -7.0 | 0.6
Cc1ccc(NC(=O)C2(C)CCN2Cc2ccc(C(C)C)cc2)cc1O (stereo not given) | 2.8 | -1.4

The list goes on.
SMILES | NPYLR7 agonist | NPYLR7 agonist max-min
CCOC(=O)C(C)(C)Sc1nnc2n1CCN2c1ccccc1 | 1.6 | 1.9
CCOCCCn1c(C)c(C)n2c3c(=O)n(Cc4ccccc4F)c(=O)n(C)c3nc12 | 0.8 | 1.4
Cc1ccc(-n2c(C)nc3ccc(NC(=O)C(C)Oc4cccc(F)c4)cc3c2=O)cc1 (stereo not given) | -9.7 | -11.3
O=C(NCc1ccncc1)c1ccc(CSc2nnc(-c3ccccc3Cl)n2Cc2ccccc2)cc1 | 18.2 | 23.1
COC(=O)C1=C(C)N(C)C(C)=C(C(=O)OC)C1c1ccc(F)c(Br)c1 | -3.5 | 6.4
Cc1ccc2c(c1)NC(c1ccc(C)o1)C1C(=O)CC(c3ccccc3)CC1=N2 (stereo not given) | 2.4 | 1.0
COc1cc(C(=O)N2CCc3ccccc3C2c2ccc(F)cc2)cc(OC)c1OC (stereo not given) | 7.0 | -0.6
COc1ccc(-c2cc(C(=O)NC(C)C)n3nc(C(C)(C)C)cc3n2)cc1 | 3.9 | 9.9
Cc1cc(Cl)ccc1N1CCN(C(=O)C2CC2)C(C)C1=O (stereo not given) | -2.0 | -2.5
O=C(NCC1CCCN(C(=O)C2(c3ccccc3)CC2)C1)c1ccc(F)cc1 (stereo not given) | 2.9 | 0.5
COc1ccc(-c2c(C)nn3c2ncc2c(=O)n(-c4n[nH]c(C)n4)ccc23)cc1 | 5.0 | 6.8
CN(C)CC1(O)CCCN(S(=O)(=O)c2ccc(-c3ccccc3)cc2)CC1 (stereo not given) | 9.5 | 6.3
O=C(c1coc(CN(Cc2cccc(Oc3ccccc3)c2)Cc2ccc3c(c2)OCO3)n1)N1CCCCC1 | 6.2 | 10.1
CCS(=O)(=O)N1CCC(C(=O)Nc2nc(-c3ccc(Br)cc3)cs2)CC1 | -4.3 | -5.5
CCCNC(=O)C(C)n1c(=O)n(-c2ccc(F)cc2)c(=O)c2ccccc21 (stereo not given) | -3.1 | 1.5
